Assay outcomes deposited in PubChem BioAssay by Broad Institute.
Vaccinia stage: blocks a specific stage of Vaccinia orthopoxvirus infection; AID 1053133; activity change (mCherry), % (no concentration beside the values); 89,000 compounds, 0.01% hits; Vaccinia-infected cells, mCherry/Venus stage reporter fluorescence; hits give low values; some inactives read as strong as hits;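 active means mCherry past -33% and 40 or more points under the early reporter, replicates agreeing; inconclusive means past -33% without that gap or agreement; tested in A549 cells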;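 further: scaled between vehicle wells and reference inhibitor wells; 23 nL library stock went into each well; one replicate is shown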
Vaccinia stage Venus: recorded beside Vaccinia stage, whose call it bears; activity change (Venus), %; measured here: Venus reporter, other viral stage;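 negative = less Venus signal; first of two replicates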
An asterisk follows results filed as active; ? = inconclusive; . = no result given. An excerpt, so the mix of outcomes need not match the whole.

No.	canonical_smiles	Vaccinia stage	Vaccinia stage Venus
1	COc1cccc(C#Cc2cnc3c(c2)C(=O)N([C@@H](C)CO)C[C@@H](C)[C@H](CN(C)C(C)=O)O3)c1	-8	-2
2	C/C=C/c1ccc([C@@H]2[C@@H](CO)N(C(=O)CC)[C@@H]2CNC(=O)C2CC2)cc1	0	4
3	COCC(=O)Nc1ccc2c(c1)[C@@H]1C[C@H](CC(=O)NCc3ccccc3OC)O[C@H](CO)[C@@H]1O2	-6	-12
4	C[C@@H]1CN([C@@H](C)CO)S(=O)(=O)c2ccc(C#CC3(O)CCCC3)cc2O[C@H]1CN(C)C(=O)Nc1ccccc1	-11	-11
5	CO[C@H]1CN(C)C(=O)c2cc(NS(=O)(=O)c3cccc(Cl)c3)ccc2OC[C@@H](C)NC[C@@H]1C	6	2
6	CN1CCN(C(=O)[C@H]2[C@H](CO)[C@H]3Cn4c(ccc(C5=CCCC5)c4=O)[C@H]3N2Cc2nccs2)CC1	3	13
7	O=C(c1cccc(F)c1)N1CC2(C1)[C@@H](c1ccccc1)[C@@H](CO)N2C(=O)C1CC1	5	-1
8	CC(C)OC(=O)N(C)C[C@@H]1OCc2ccccc2-c2c(n(C)c3ccccc23)C(=O)N([C@H](C)CO)C[C@@H]1C	-11	-9
9	CO[C@H]1CN(C)C(=O)c2cccc(C#N)c2OC[C@@H]2O[C@@H](CC[C@H]2OC)CCN(C)C(=O)[C@H]1C	9	6
10	O=C(c1ccc2c(c1)OCO2)N1CCCCN2[C@@H](CO)[C@H](c3ccc(-c4ccccc4)cc3)[C@@H]2C1	-10	-23
11	COc1ccc(S(=O)(=O)Nc2ccc3c(c2)C(=O)N([C@@H](C)CO)C[C@@H](C)[C@@H](CN(C)S(=O)(=O)c2ccccc2)O3)cc1	10	6
12	C=CCOC(=O)C1=C[C@@H](c2ccc(Br)cc2)C[C@@H](OCc2ccc(CO)cc2)O1	12	9
13	O=C(C[C@H]1CC[C@@H](NS(=O)(=O)c2ccc(F)cc2)[C@@H](CO)O1)NCc1ccc(Cl)c(Cl)c1	-23	-23
14	C[C@@H]1CCCCO[C@H](CN(C)S(=O)(=O)c2ccc(F)cc2)[C@H](C)CN([C@@H](C)CO)C(=O)c2cc(NC(=O)CCCN(C)C)ccc2O1	0	-7
15	Cc1ccc(S(=O)(=O)Nc2ccc3c(c2)C(=O)N([C@H](C)CO)C[C@H](C)[C@@H](CN(C)S(C)(=O)=O)OCCCC[C@H](C)O3)cc1	19	-2
16	C[C@H]1CCCCO[C@H](CN(C)S(=O)(=O)c2ccc(F)cc2)[C@@H](C)CN([C@@H](C)CO)C(=O)c2cc(N(C)C)ccc2O1	-14	-3
17	COc1ccc(NC(=O)N(C)C[C@@H]2Oc3c(NS(=O)(=O)c4cn(C)cn4)cccc3C(=O)N([C@@H](C)CO)C[C@@H]2C)cc1	14	14
18	CCC(=O)N[C@H]1C=C[C@@H](CC(=O)NCc2ccccc2OC)O[C@H]1CO	0	8
19	C[C@H](CO)N1C[C@H](C)[C@H](CN(C)C(=O)Nc2ccc3c(c2)OCO3)Oc2cc(C#Cc3ccccc3)ccc2S1(=O)=O	-11	-17
20	CN1C(=O)c2cc(NC(=O)c3cccs3)ccc2OC[C@H]2O[C@H](CC(=O)N3CCOCC3)CC[C@@H]21	1	3
21	C[C@@H]1CN([C@H](C)CO)C(=O)c2cccc(NC(=O)Nc3cccc4ccccc34)c2O[C@H]1CN(C)C(=O)Nc1ccc2c(c1)OCO2	3	7
22	C[C@@H]1CN([C@@H](C)CO)C(=O)c2cc(NC(=O)C3CC3)ccc2O[C@H]1CN(C)C(=O)NC1CCCCC1	-3	-13
23	COc1ccccc1S(=O)(=O)Nc1ccc2c(c1)OC[C@H](C)NC[C@@H](C)[C@H](OC)CN(C)C2=O	2	3
24	Cc1noc(C)c1NC(=O)Nc1ccc2c(c1)CC(=O)N([C@H](C)CO)C[C@@H](C)[C@H](CN(C)S(=O)(=O)c1cccs1)O2	14	9
25	C[C@@H]1CCCCO[C@H](CN(C)S(=O)(=O)c2cccs2)[C@H](C)CN([C@@H](C)CO)C(=O)c2cc(NS(=O)(=O)c3ccc(Cl)cc3)ccc2O1	?	.

5 compounds already listed, arranged by count of non-hydrogen atoms, lowest first.
No.	canonical_smiles	Vaccinia stage	Vaccinia stage Venus
2	C/C=C/c1ccc([C@@H]2[C@@H](CO)N(C(=O)CC)[C@@H]2CNC(=O)C2CC2)cc1	0	4
5	CO[C@H]1CN(C)C(=O)c2cc(NS(=O)(=O)c3cccc(Cl)c3)ccc2OC[C@@H](C)NC[C@@H]1C	6	2
9	CO[C@H]1CN(C)C(=O)c2cccc(C#N)c2OC[C@@H]2O[C@@H](CC[C@H]2OC)CCN(C)C(=O)[C@H]1C	9	6
8	CC(C)OC(=O)N(C)C[C@@H]1OCc2ccccc2-c2c(n(C)c3ccccc23)C(=O)N([C@H](C)CO)C[C@@H]1C	-11	-9
17	COc1ccc(NC(=O)N(C)C[C@@H]2Oc3c(NS(=O)(=O)c4cn(C)cn4)cccc3C(=O)N([C@@H](C)CO)C[C@@H]2C)cc1	14	14

Some of the entries above, reformatted:
17) COc1ccc(NC(=O)N(C)C[C@@H]2Oc3c(NS(=O)(=O)c4cn(C)cn4)cccc3C(=O)N([C@@H](C)CO)C[C@@H]2C)cc1
14) C[C@@H]1CCCCO[C@H](CN(C)S(=O)(=O)c2ccc(F)cc2)[C@H](C)CN([C@@H](C)CO)C(=O)c2cc(NC(=O)CCCN(C)C)ccc2O1
screen / no. | 17 | 14
Vaccinia stage | 14 | 0
Vaccinia stage Venus | 14 | -7

(more compounds)
No.	canonical_smiles	Vaccinia stage	Vaccinia stage Venus
26	CCC(=O)N1[C@H](CO)[C@@H](c2ccccc2)[C@@H]1CN(CC)C(=O)c1cccc(F)c1	13	6
27	O=C(C[C@@H]1C=C[C@@H](NC(=O)Nc2ccccc2)[C@H](CO)O1)NCc1cccc(F)c1	1	1
28	COc1ccc2c3c([nH]c2c1)[C@@H](CO)N(S(=O)(=O)c1cn(C)cn1)CC31CCN(Cc2ccccc2F)CC1	?	.
29	CCCC(=O)Nc1ccc2c(c1)C(=O)N(C)C[C@H](OC)[C@H](C)CN(Cc1cccc(F)c1)[C@@H](C)CO2	-4	-17
30	Cc1noc(C)c1NC(=O)N[C@@H]1C=C[C@H](CC(=O)N2CCN(C)CC2)O[C@@H]1CO	14	10
31	COCC#Cc1ccc([C@H]2[C@H]3CN(S(=O)(=O)c4cccc(OC)c4)CCCCN3[C@H]2CO)cc1	-16	-19
32	COc1ccccc1NC(=O)N1C[C@@H]2[C@H](c3ccccc31)[C@@H](CO)N2CC1CCOCC1	1	7
33	C[C@H]1CN([C@@H](C)CO)C(=O)c2cc(-c3ccc(C#N)cc3)cnc2O[C@H]1CN(C)C(=O)Nc1ccc(C(F)(F)F)cc1	?	.
34	C[C@@H]1CN([C@@H](C)CO)C(=O)c2cccc(NC(=O)CCCCCC(=O)Nc3ccccc3N)c2O[C@H]1CN(C)S(=O)(=O)c1ccc(Cl)cc1	-8	7
35	O=C(C1CCCCC1)N1CC(=O)N2[C@@H](CO)[C@@H](c3ccc(C#Cc4cccc(F)c4)cc3)[C@@H]2C1	?	.
36	C[C@@H]1CCCCO[C@@H](CN(C)C(=O)NC2CCCCC2)[C@H](C)CN([C@@H](C)CO)C(=O)c2cc(NC(=O)Nc3cccc4ccccc34)ccc2O1	11	14
37	CO[C@@H]1CN(C)C(=O)c2cc(NC(=O)Nc3ccccc3)ccc2OC[C@@H](C)N(C(=O)CN(C)C)C[C@@H]1C	-4	-8
38	CN(C)C(=O)c1cccc(-c2ccc([C@H]3[C@@H](CO)N(C(=O)C4CCC4)[C@H]3C#N)cc2)c1	-4	5
39	C[C@@H]1CCCCO[C@H](CN(C)Cc2ccncc2)[C@H](C)CN([C@H](C)CO)C(=O)c2cc(NS(=O)(=O)c3cn(C)cn3)ccc2O1	18	3
40	Cc1noc(C)c1NC(=O)N(C)C[C@@H]1Oc2ccc(NC(=O)C3CCCCC3)cc2C(=O)N([C@H](C)CO)C[C@@H]1C	6	21
41	CO[C@@H]1CN(C)C(=O)c2ccc(NS(C)(=O)=O)cc2OC[C@H](C)N(Cc2ccccn2)C[C@H]1C	16	14
42	CC(C)c1cn(CC[C@@H]2CC[C@@H](NC(=O)C3CCCCC3)[C@@H](CO)O2)nn1	18	2
43	C[C@H](CO)N1C[C@H](C)[C@@H](CN(C)Cc2ccc3c(c2)OCO3)Oc2ccc(NC(=O)c3ccncc3)cc2CC1=O	-6	-2
44	COc1ccc(NC(=O)N(C)C[C@H]2Oc3ccc(NS(C)(=O)=O)cc3CC(=O)N([C@@H](C)CO)C[C@H]2C)cc1	-8	-6
45	CO[C@@H]1CN(C)C(=O)c2ccc(NS(C)(=O)=O)cc2OC[C@H](C)N(C(=O)C2CCCCC2)C[C@@H]1C	20	9
46	C[C@@H]1CN([C@H](C)CO)C(=O)c2cc(NC(=O)Nc3ccccc3)ccc2O[C@@H](C)CCCCO[C@H]1CN(C)Cc1ccncc1	-28	-21
47	CCS(=O)(=O)N1C[C@@H](C)[C@H](OC)CN(C)C(=O)c2cc(NS(=O)(=O)c3ccccc3C)ccc2OC[C@H]1C	12	4
48	C[C@@H]1CN([C@@H](C)CO)C(=O)c2cc(-c3ccc(C#N)cc3)cnc2O[C@H]1CN(C)C(=O)c1ccccc1	8	1
49	O=C(C1CCCC1)N1CC(=O)N2[C@H](CO)[C@H](c3ccc(C#CC4CCCC4)cc3)[C@H]2C1	-30	-19
50	C[C@@H]1CN([C@H](C)CO)S(=O)(=O)c2ccc(Br)cc2O[C@H]1CN(C)Cc1cccnc1	-5	-7
51	C[C@H]1CN([C@@H](C)CO)C(=O)CCCn2nncc2CO[C@@H]1CN(C)S(=O)(=O)c1ccc(-n2cccn2)cc1	15	14
52	COc1ccc(C(=O)Nc2ccc3c(c2)OC[C@@H](C)N(C(C)=O)C[C@@H](C)[C@H](OC)CN(C)C3=O)cc1	-4	-2
53	COc1ccc(NC(=O)N(C)C[C@@H]2Oc3ccc(NC(=O)CCCN(C)C)cc3CC(=O)N([C@H](C)CO)C[C@H]2C)cc1	-6	-3
54	C[C@@H]1CCCCO[C@H](CN(C)C(=O)Nc2ccccc2)[C@H](C)CN([C@@H](C)CO)C(=O)c2cc(NC(=O)c3ccccc3)ccc2O1	-5	-5
55	C[C@@H]1CN([C@@H](C)CO)C(=O)c2cccc(NC(=O)Nc3ccccc3)c2O[C@H]1CN(C)Cc1ccc2c(c1)OCO2	-11	-12
56	O=C(c1ccccc1)N1CC2(C1)[C@H](c1ccccc1)[C@H](CO)N2Cc1ccccn1	3	-1
57	CCCC#Cc1cnc2c(c1)C(=O)N([C@@H](C)CO)C[C@@H](C)[C@H](CN(C)C(=O)c1cnccn1)O2	8	-2
58	CCCNC(=O)Nc1ccc2c(c1)C(=O)N(C)C[C@@H](OC)[C@H](C)CN(C(=O)C1CCOCC1)[C@@H](C)CO2	6	-1
59	Cc1ccc(S(=O)(=O)N2C[C@@H](O)COC[C@@H]3O[C@@H](CC(=O)NCc4ccc(Cl)c(Cl)c4)CC[C@H]32)cc1	?	.
60	C[C@H](CO)N1C[C@H](C)[C@@H](CN(C)C(=O)Nc2ccccc2)Oc2ccc(NC(=O)C3CC3)cc2CC1=O	14	14
61	CNC[C@@H]1Oc2cc(C#CCC(C)C)ccc2S(=O)(=O)N([C@@H](C)CO)C[C@H]1C	?	.
62	Cc1ccc(S(=O)(=O)N(C)C[C@H]2OCCCC[C@@H](C)Oc3ccc(NC(=O)Cc4ccccc4)cc3C(=O)N([C@H](C)CO)C[C@@H]2C)cc1	20	0
63	CO[C@@H]1CN(C)C(=O)c2ccc(NC(=O)Nc3c(C)noc3C)cc2OC[C@H](C)N(CCC(F)(F)F)C[C@H]1C	28	15
64	C[C@@H]1CN([C@H](C)CO)C(=O)c2cccc(NC(=O)Nc3ccc(F)cc3)c2O[C@@H]1CN(C)Cc1ccc2c(c1)OCO2	-9	-10
65	CN(C)CCCNC(=O)C[C@H]1CC[C@H](NS(=O)(=O)c2ccc(F)cc2)[C@H](CO)O1	16	10
66	CCCNC(=O)N1CC(=O)N2[C@H](C1)[C@H](c1ccc(C#CCC3CCCC3)cc1)[C@@H]2CO	-29	-25
67	C[C@@H]1CN([C@@H](C)CO)C(=O)c2cc(C#CCC3CCCC3)cnc2O[C@@H]1CN(C)C(=O)CN(C)C	-27	-11
68	CO[C@@H]1CN(C)C(=O)c2ccc(NC(C)=O)cc2OC[C@@H](C)N(C(=O)c2ccncc2)C[C@H]1C	-6	2
69	CC=Cc1ccc2n(c1=O)C[C@@H]1[C@@H](CO)[C@H](C(=O)NCC)[C@H]2N1C(=O)c1ccccc1 (mixture of isomers)	1	5
70	CN(C)C(=O)[C@H]1[C@H](CO)[C@H]2Cn3c(ccc(-c4ccccc4)c3=O)[C@H]2N1Cc1ccccc1	8	-2
71	COc1ccc(CN(C)C[C@@H]2Oc3ccc(NS(=O)(=O)c4ccc(C)cc4)cc3CC(=O)N([C@@H](C)CO)C[C@H]2C)cc1	5	-9
72	C[C@@H]1CN([C@H](C)CO)C(=O)Cc2cc(NC(=O)Nc3cccc4ccccc34)ccc2O[C@@H]1CN(C)Cc1ccccc1	-13	-7
73	COc1ccc(S(=O)(=O)N[C@@H]2C=C[C@@H](CC(=O)NCCc3ccncc3)O[C@@H]2CO)cc1	2	1
74	O=C(Nc1ccccc1F)N[C@@H]1CC[C@@H](CCNS(=O)(=O)c2ccc(F)cc2)O[C@@H]1CO	-12	-7
75	CNC[C@H]1Oc2ccc(NC(=O)Nc3ccc(C(F)(F)F)cc3)cc2C(=O)N([C@@H](C)CO)C[C@@H]1C	2	-2
76	C[C@H](CO)N1C[C@H](C)[C@H](CN(C)C(=O)CCCN(C)C)OCCCC[C@H](C)Oc2ccc(NC(=O)Nc3ccccc3)cc2C1=O	4	-3
77	COC(=O)[C@@]1(Cc2ccccc2CN=[N+]=[N-])COC(c2ccc(OCCCO)cc2)=N1	-22	-15
78	C[C@@H]1CN([C@@H](C)CO)C(=O)c2cc(NC(=O)Cc3cn(C)c4ccccc34)ccc2O[C@@H]1CN(C)Cc1ccc(C(=O)Nc2ccccc2N)cc1	14	-4
